Ecoli growth = E. coli growth inhibition, primary screen, OD600. actives 0.21% (n = 330,000). Escherichia coli growth, 23 h; hits give low values. OD600 absorbance (test concentration not listed);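 active = OD600 absorbance below the run mean of sample wells minus 3.6 SD, in any replicate, cut at about 0.56 in these data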;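 also: stock transfer was 300 nL into about 60 µL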
UCH37 DUB inh = inhibitors of human UCH37 deubiquitinase, primary screen, biochemical, Ub-AMC cleavage, fluorescence; Ubiquitin carboxyl-terminal hydrolase isozyme L5 (Homo sapiens), Q9Y5K5; purified proteasome/UCH37; inhibition, % (concentration not given with the values); actives 0.33% (n = 330,000);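 active = mean of two replicates above 20%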;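 also: 0% = compound-free wells with enzyme and 100% = wells lacking proteasome; stock transfer was 100 nL into about 20 µL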
Target sequence (Q9Y5K5 whole entry, looked up): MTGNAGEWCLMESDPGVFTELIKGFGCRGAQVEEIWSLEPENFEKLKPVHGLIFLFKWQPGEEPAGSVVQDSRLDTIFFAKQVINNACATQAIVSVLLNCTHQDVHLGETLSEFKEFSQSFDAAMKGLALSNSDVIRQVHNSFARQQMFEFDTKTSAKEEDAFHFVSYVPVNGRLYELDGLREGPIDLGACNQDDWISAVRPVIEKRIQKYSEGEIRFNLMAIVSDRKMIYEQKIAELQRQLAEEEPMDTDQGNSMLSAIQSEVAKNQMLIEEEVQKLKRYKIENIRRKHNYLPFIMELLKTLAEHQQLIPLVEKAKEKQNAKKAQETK
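Test system – human UCH37 enzyme supplied as purified proteasome complex · Incubation – 30 min preincubation with enzyme, 25 min cleavage at room temperature · Detection – AMC fluorescence from Ub-AMC cleavage, excitation 355 nm, emission 460 nm · Benchmarks – no-proteasome wells (full inhibition) and compound-free wells (no inhibition)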
FGF22 binding = binders of human FGF22 protein, primary screen, FGF22 synaptogenesis inhibitor project, biophysical, thermal shift, single point. recombinant FGF22 thermal shift, SYPRO orange fluorescence; percent of sucrose octasulfate shift, DMSO zero. calls only at 9.99 µM. actives 1.5% (n = 340,000);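 active = melting point raised past a set limit in the mean and every replicate; three in four hits are not shown here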
Target sequence (Q9HCT0 whole entry, looked up): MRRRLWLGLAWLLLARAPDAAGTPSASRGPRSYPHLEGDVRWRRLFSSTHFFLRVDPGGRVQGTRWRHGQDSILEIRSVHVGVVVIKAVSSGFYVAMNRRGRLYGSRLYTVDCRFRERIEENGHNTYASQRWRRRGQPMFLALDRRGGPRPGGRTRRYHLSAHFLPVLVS
T cruzi inh = inhibitors of intracellular T. cruzi growth, primary screen, luminescence, NIH3T3 host cells; T. cruzi beta-gal in NIH3T3, 90 h; inhibition, % (no concentration beside the values); actives 1.4% (n = 300,000);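 active = mean inhibition across valid replicates above about 55%, limit read from the data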;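 also: signal also drops with host cell toxicity which is not excluded here; 0% = plate median of DMSO wells and 100% = zero luminescence signal; higher percent means less beta-gal luminescence so fewer parasites; stock transfer was 50 nL into about 50 µL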
MLL AF4-AF9 inh = inhibitors of AF4 peptide binding to AF9, primary screen, biochemical, AlphaScreen, biotin-AF4 peptide, FLAG-AF9, single point; Protein AF-9 (Homo sapiens), P42568; inhibition, % at 10 µM; actives 0.47% (n = 350,000);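 active = every replicate reaching a set inhibition limit, whatever the replicate mean, cut at about 25% in these data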;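 also: 0% = plate neutral control median and 100% = total signal loss; the record names both 10 and 1 µM as test concentration; the first replicate is given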
Target sequence (P42568 whole entry, looked up): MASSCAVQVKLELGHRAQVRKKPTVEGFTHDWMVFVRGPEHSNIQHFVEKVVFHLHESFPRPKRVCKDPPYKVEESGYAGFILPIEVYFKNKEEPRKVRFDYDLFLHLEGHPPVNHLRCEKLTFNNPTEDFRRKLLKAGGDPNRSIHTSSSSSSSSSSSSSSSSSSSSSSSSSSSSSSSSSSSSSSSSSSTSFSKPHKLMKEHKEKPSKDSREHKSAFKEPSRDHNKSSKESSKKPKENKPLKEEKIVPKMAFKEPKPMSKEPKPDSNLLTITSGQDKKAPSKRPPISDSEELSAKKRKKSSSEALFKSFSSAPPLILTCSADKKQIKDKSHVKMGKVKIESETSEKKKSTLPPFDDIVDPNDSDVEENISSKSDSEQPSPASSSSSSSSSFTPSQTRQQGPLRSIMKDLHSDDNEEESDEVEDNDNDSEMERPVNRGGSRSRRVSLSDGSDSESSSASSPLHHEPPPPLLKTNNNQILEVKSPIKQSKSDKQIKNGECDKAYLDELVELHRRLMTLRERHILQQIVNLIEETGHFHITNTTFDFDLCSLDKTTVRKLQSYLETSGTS
rRNA inh HTS = reduced GFP signal of wild-type E. coli, primary screen, bacterial rRNA inhibitor project, GFP/RFP fluorescence, OD600, single point. E. coli WT GFP vs humanized-ribosome RFP mutants, 24 h; hits give low values; DMSO median 0, no signal -100. GFP signal change (wild-type ribosome), % (no concentration beside the values). actives 1.6% (n = 350,000);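 active = significant combined selectivity score with lowered wild-type GFP, culture density cut under 30%, mutant RFP and density less affected; inactive = any of these conditions unmet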; also: one replicate is shown; some compounds called inactive have numbers as strong as hits
A1 inh = caspase 3/7 activation in MEF A1-2A-BIM cells, primary screen, A1 inhibitor project, cell-based, luminescence, HTS; Caspase-Glo 3/7 luminescence, 3 h; percent of clofoctol response, vehicle zero; caspase activation, % (test concentration not listed); actives 0.066% (n = 330,000);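 active = over half of replicate activation scores above 10%, or exactly half above 10 with the replicate mean above 10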;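 also: wells of about 30 µL received 50 nL stock; many hits fall short of the cut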
Beta cell apopt = inhibitors of cytokine-induced beta cell apoptosis, primary screen, luminescence; INS-1E cytokine-induced death, ATP luminescence, 48 h; percent of positive-control rescue, neutral wells zero; protection from apoptosis, % (no concentration beside the values); actives 0.8% (n = 300,000); AID 435005, 2010;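 active = all replicates at 75% or more, or half of them and the mean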;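 also: 0% = cytokine-treated negative control wells and 100% = positive control rescue; higher means more ATP so stronger rescue from cytokine killing; wells of about 40 µL received 100 nL stock; the first replicate is given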
rRNA inh HTS OD600 = also measured in rRNA inh HTS; calls as there; OD600 change, %; measured here: OD600 growth;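 optical density of the mix in the first replicate; 0 = DMSO median and -100 = no signal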
rRNA inh HTS RFP = also measured in rRNA inh HTS; calls as there; RFP signal change, %; measured here: RFP humanized mutant strains;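 first replicate; 0 = DMSO median and -100 = no signal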
Starred values were filed as active, the others as inactive; i = inactive; · = not tested or not shown.

SMILES	Ecoli growth	UCH37 DUB inh	FGF22 binding	T cruzi inh	MLL AF4-AF9 inh	rRNA inh HTS	rRNA inh HTS OD600	rRNA inh HTS RFP	A1 inh	Beta cell apopt
CCN(CC)S(=O)(=O)c1ccc(F)c(C(=O)NCCCN2CCOCC2)c1	0.76	3.1	·	-6	·	·	·	·	0.3	0
CN(C)c1ccc(C=Nc2ccccc2)cc1	0.66	13	·	-2	·	·	·	·	-0.8	·
Cc1ccc(C2SCC(=O)N2c2ccccc2)cc1 (stereo not given)	0.67	2.7	i	-18	-0.1	1	-4	-0.4	-0.3	-9
COc1ccccc1CCNC(=O)C(C)n1nc(C)c2c(C)n(-c3ccccc3)nc2c1=O (stereo not given)	0.67	1.9	i	9	-0.4	-2	-3	0.9	-0.6	·
CC1=C2C3OC(=O)C(C)[C@@H]3CC[C@](C)(O)C2C2C3C4C5(C12)[C@H]1OC(=O)[C@@H](C)C1CC[C@]4(C)O[C@]5(C)[C@@H]3O (stereo not given in full)	0.67	2.3	i	-9	-3.9	16	14	0.2	0.5	-3
COc1ccc(CNC(=O)Nc2ccccc2)cc1	0.68	4.1	i	2	-5.1	6	12	0.2	-1.4	-4
CC(CC(=O)N1CCN(c2ccccc2F)CC1)c1ccccc1 (stereo not given)	0.68	1.2	·	-11	·	·	·	·	0.9	-2
CCOc1cccc(OCCn2cnc3ccccc3c2=O)c1	0.71	1.4	i	17	4.5	5	11	5.7	-0.9	-5
O=C(c1ccccc1)c1coc2ccc(O)c(Cl)c12	0.62	4.1	i	-7	9.7	-45*	-33*	-12*	-1.4	-3
O=C1NCCNC(=O)c2ccccc2OCCOc2ccccc21	0.63	-0.1	i	-9	-1.1	8	7	1.0	-0.1	-11
Brc1ccccc1OCCCn1cnc2ccccc21	0.62	2.3	·	-2	·	·	·	·	-0.2	0
CC(C)(C)n1nnnc1C(c1ccccc1F)N(Cc1ccco1)CC1CCCO1 (stereo not given)	0.7	1.2	i	14	10	-31	-39	-15	0.1	·
O=C(c1ccc2c(=O)n(CCc3ccccc3)c(=O)[nH]c2c1)N1CCN(c2ccc(F)cc2)CC1	0.67	-0.1	i	36	3.0	1	3	-0.4	0.0	-2
COc1ccc(NC(=O)C2CCN(C(=O)[C@@H]3Cc4ccccc4CN3)CC2)cc1	0.65	1.2	i	6	2.0	7	8	-0.3	-0.1	1
COc1cc(C)c(Cl)cc1S(=O)(=O)NCc1ccccn1	·	·	i	-6	0.1	12	5	2.5	0.7	-3
O=C(CSCc1ccccc1)Nc1ccc(Cl)cn1	0.7	-0.2	·	-1	·	·	·	·	2.4	-5
CCCc1cc(=O)[nH]c2nnc(SCC(=O)NC3CCCC3)n12	0.65	0.5	i	-1	-5.8	1	8	-0.7	0.3	3
CCOC(=O)Cc1csc(NC(=O)CCCCCN2C(=O)c3cccc4cccc(c34)C2=O)n1	0.71	-12	·	1	·	·	·	·	1.3	-1
COCC1COS(=O)(=O)NC1(C)C (stereo not given)	0.71	1.9	i	-11	-1.5	4	3	-6.3	0.1	2
COc1ccc(-c2cc(-c3ccc(Cl)cc3)n[nH]2)c(O)c1	0.64	2.4	i	24	0.8	-35	-43	-3.2	-1.2	5
CCC1(C)CC(C(N)=S)CCO1 (stereo not given)	0.66	4.7	i	-2	-1.4	19	13	2.2	-0.2	-7
COc1ccc(S(=O)(=O)N(C)CC(=O)N2CCN(c3ccccc3)CC2)cc1	0.69	2.5	i	4	2.4	-5	2	1.7	0.0	2
Cc1ccc(-n2c(C)cc(C(=O)Cn3nc(C(=O)O)c4ccccc4c3=O)c2C)cc1	0.72	4.8	i	4	2.4	1	7	0.4	-0.4	-3
COc1ccc(-c2ccccc2NC(=O)C2CCCN(Cc3ccc(C)o3)C2)cc1 (stereo not given)	0.68	1.8	i	18	9.5	-17	-16	1.6	-0.3	-5
CCN(CC)c1ccc(S(=O)(=O)N2CCOCC2)cc1NC(=O)CSc1nncs1	0.68	6.1	·	8	·	·	·	·	1.2	-1
CCOC(=O)c1c(NC(C)=O)sc2c1CCCNC2=O	0.72	2.8	·	-4	·	·	·	·	0.7	·
O=S(=O)(CC(CN1CCCC1)N1CCCC1)c1ccc2ccccc2c1 (stereo not given)	0.67	1.4	·	10	·	·	·	·	-0.1	-3
CC(C)Oc1cccc(C(=O)N/N=C/c2ccoc2)c1	·	·	i	·	-0.8	-3	-6	0.6	-0.7	-1
O=C(CCc1ccccc1)Nc1ccc(S(=O)(=O)N2CCCC2)cc1	0.66	0.5	i	-2	-1.9	-11	-1	8.1	-2.5	5
COc1ccc(-c2cc(C(=O)Nc3ccc(Br)cc3)no2)cc1	0.7	3.1	i	12	-1.0	-33	-38	-7.0	0.5	0
C[C@H](NC(=O)C1(c2ccccc2)CCN(C(=O)[C@H]2CSCN2C(=O)OC(C)(C)C)CC1)C(=O)O	0.74	2.7	·	-7	-2.2	·	·	·	0.9	-10
Nc1ccc(N(c2ccccc2)c2ccc(N)cc2)cc1	0.64	2.3	·	58*	·	·	·	·	-0.2	·
O=C(NC(=O)c1ccncc1)NC(c1ccccc1)c1ccccc1	0.69	1.3	i	-7	-1.4	8	3	-6.4	1.3	-4
COc1ccc(-c2ccccc2)cc1NC(=O)c1cccs1	0.63	2.5	i	-1	-3.7	-5	-17	-17	1.0	1
COc1cc(/C=C2\SC(=S)N(CCC(=O)N3CCN(C)CC3)C2=O)cc(OC)c1OC	0.67	6.9	i	11	10	-5	0	8.9	0.3	-36
CCCCn1c(N)c(N(CC(C)C)C(=O)c2cnc(C)cn2)c(=O)[nH]c1=O	0.65	1.4	i	-4	0.2	5	5	-1.9	0.2	-5
N#CC(C(=O)Nc1ccccc1)=C1Nc2ccccc2N1	0.69	3.4	·	-2	·	·	·	·	-0.1	5
COC(=O)CSc1nc2ccccc2n1CC(=O)N(C(C)C)C(C)C	0.74	1.4	·	-5	·	·	·	·	0.1	4
CCC(Sc1nc2ccccc2c2nc3ccccc3n12)C(=O)NCc1ccco1 (stereo not given)	0.67	1.2	·	-3	·	·	·	·	-0.1	12
O=C(c1ccc(Cn2c(=O)[nH]c3ccsc3c2=O)cc1)N1CCN(c2ccccc2)CC1	0.71	2.2	i	-12	-3.5	6	-1	0.4	0.0	-1

Full records from above. Order of values: Ecoli growth, UCH37 DUB inh, FGF22 binding, T cruzi inh, MLL AF4-AF9 inh, rRNA inh HTS, rRNA inh HTS OD600, rRNA inh HTS RFP, A1 inh, Beta cell apopt
COc1ccc(-c2ccccc2NC(=O)C2CCCN(Cc3ccc(C)o3)C2)cc1 (stereo not given) across the screens: 0.68, 1.8, i, 18, 9.5, -17, -16, 1.6, -0.3, -5
CCOc1cccc(OCCn2cnc3ccccc3c2=O)c1 across the screens: 0.71, 1.4, i, 17, 4.5, 5, 11, 5.7, -0.9, -5

Later entries.
SMILES	Ecoli growth	UCH37 DUB inh	FGF22 binding	T cruzi inh	MLL AF4-AF9 inh	rRNA inh HTS	rRNA inh HTS OD600	rRNA inh HTS RFP	A1 inh	Beta cell apopt
C=CCn1c(SCC(=O)Nc2ccc3c(c2)CCC3)nc2ccccc2c1=O	0.7	4.9	i	5	-2.1	-8	-8	0.2	-0.1	-1
O=[N+]([O-])c1cccc2c3c([nH]c12)CCCC3	0.67	5.1	i	15	2.7	-29	-26	-5.3	-0.3	4
C=CCN(C(=O)CNC(=O)c1ccco1)C(C(=O)NC1CCCCC1)c1ccc(OC)cc1OC (stereo not given)	0.74	1.1	·	0	·	·	·	·	0.4	-5
CCOC(CCNC(=O)c1cn(CC(C)C)c(=O)c2c1c1ccccc1n2C)OCC	0.71	-47	i	9	-1.3	4	13	-0.3	0.4	1
O=[N+]([O-])c1ccc(NC(=S)N2CCN(c3ccccc3)CC2)cc1	0.63	7.9	·	-7	·	·	·	·	0.0	-7
CCc1cccc(C)c1NC(=S)N(CCOC)C(C)c1ccco1 (stereo not given)	0.69	4.4	i	-14	2.3	1	2	-5.9	1.4	-12
Cc1ccc(NC(=S)Nc2ccc3cn[nH]c3c2)cc1C	0.69	1.7	·	1	·	·	·	·	-0.2	-5
CCCCn1c(N)c(N(CCOC)C(=O)c2ccc(S(=O)(=O)N3CCCCC3)cc2)c(=O)[nH]c1=O	0.66	-1.2	i	-8	-5.0	6	6	-1.9	0.6	-2
O=C(Nc1c2c(nn1-c1ccccc1)CS(=O)C2)c1ccc(Br)o1 (stereo not given)	0.71	2.6	i	2	-6.4	-7	-28	-3.3	-0.5	-3
COc1ccc(C(=O)c2c(-c3ccsc3)oc3ccc(-c4ccc(OC)cc4)cc23)cc1	0.81	-0.4	i	43	1.6	11	21	-11	-0.1	16
CCOc1ccc(C2c3cc(OC)c(OC)cc3CC(=O)N2c2ccc(OC)cc2)cc1 (stereo not given)	0.71	-1.9	·	-6	·	·	·	·	0.0	0
COc1ccc(C(=O)N2CCn3c2nc2ccccc23)cc1	0.68	1.3	i	-7	6.2	7	1	0.6	-1.4	-1
O=C(Cn1ncc2c([nH]c3ccccc32)c1=O)NCC1CCN(Cc2ccccc2F)CC1	0.64	-0.7	i	33	-7.0	6	2	-0.9	-0.4	·
CC(C)c1nc2cc3ccccc3cc2[nH]1	0.68	-0.2	·	-2	·	·	·	·	-0.9	3
COc1ccc(C2(C)NC(=O)N(CC(=O)NC(C)c3ccc(CC(C)C)cc3)C2=O)cc1 (stereo not given)	0.64	-0.6	i	-5	-0.3	5	-25	8.8	-1.0	0
Cc1nc(NC(=O)CCc2ccccc2)sc1C	0.64	6.7	i	-10	-1.0	-4	-12	-5.2	-0.1	4
CCCCOc1ccc(C(=O)Nc2ccc(C)cc2[N+](=O)[O-])cc1	0.67	1.7	i	4	5.8	2	-2	-2.9	-0.1	-1
CC1CCCCN1CCCNC(=O)c1ccc(Br)cc1 (stereo not given)	0.63	-0.5	i	8	1.4	6	12	4.5	0.1	-8
O=C(CN1CCN(c2ccc(F)cc2)CC1)NC(=O)NCc1ccco1	0.72	1.9	i	-5	0.6	12	11	14	0.5	-5
CCOc1cc(CNCCc2ccc(S(N)(=O)=O)cc2)ccc1OCc1ccc(Cl)cc1	0.77	1.6	·	43	·	·	·	·	0.7	105*
CC(CC(=O)Nc1ccccc1)n1ccnc1 (stereo not given)	0.72	3.0	i	0	-0.3	11	8	0.7	-0.1	-7
Cc1ccccc1Oc1ncnc(N)c1[N+](=O)[O-]	0.68	3.1	i	-13	-0.1	25	21	2.2	-0.1	3

Rewritten with each value named: entries from further up
CC1CCCCN1CCCNC(=O)c1ccc(Br)cc1 (stereo not given)
  Ecoli growth: 0.63	UCH37 DUB inh: -0.5	FGF22 binding: i	T cruzi inh: 8	MLL AF4-AF9 inh: 1.4	rRNA inh HTS: 6	rRNA inh HTS OD600: 12	rRNA inh HTS RFP: 4.5	A1 inh: 0.1	Beta cell apopt: -8

O=C(CN1CCN(c2ccc(F)cc2)CC1)NC(=O)NCc1ccco1
  Ecoli growth: 0.72	UCH37 DUB inh: 1.9	FGF22 binding: i	T cruzi inh: -5	MLL AF4-AF9 inh: 0.6	rRNA inh HTS: 12	rRNA inh HTS OD600: 11	rRNA inh HTS RFP: 14	A1 inh: 0.5	Beta cell apopt: -5

High-throughput results from PubChem BioAssay.

An excerpt; count on the stated rates, not on these rows.
